# LANA-H2B inh: blocks KSHV LANA binding to histone H2A/H2B. AID 2629. hit rate 0.6% among 320,000. cell-free LANA-H2A/H2B peptide, fluorescence polarization. Q9QR71. inhibition, % (concentration not given with the values); in the data active = inhibition mostly above about 10%, no sharp cut-off; inactive = mostly below about 6.7%;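 note: stock transfer was 7.5 nL into about 10 µL; 0% = median of vehicle wells and 100% = median of positive control wells; one replicate is shown; the record names a cut of 25% in any replicate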
# T cruzi repl: T. cruzi replication inhibition | T. cruzi beta-gal in NIH3T3, luminescence, 90 h | inhibition, % (no concentration beside the values) | hit rate 1.4% among 300,000 | AID 1885;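 active = mean inhibition across valid replicates above about 55%, limit read from the data; inconclusive = mean below that limit but half or more replicates reach it; inactive = mean below it, under half of replicates reach it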;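 note: signal also drops with host cell toxicity which is not excluded here; 0% = plate median of DMSO wells and 100% = zero luminescence signal; higher percent means less beta-gal luminescence so fewer parasites; stock transfer was 50 nL into about 50 µL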
# RanGTP-Imp inh: inhibitors of RanGTP-importin-beta interaction, primary screen, biochemical, FRET, CFP-Ran, YFP-importin-beta, homogeneous; cell-free CFP-Ran/YFP-importin-beta FRET ratio; inhibition, % (concentration not given with the values); hit rate 1.1% among 300,000; AID 2216;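 active = most replicates above 15%; inconclusive = exactly half above 15%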;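 note: 0% = DMSO wells and 100% = Ran loaded with GDP instead of GTP; wells of about 40 µL received 100 nL stock; the first replicate is given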
# Beta cell apopt: beta cell apoptosis inhibition | INS-1E cytokine-induced death, ATP luminescence, 48 h; percent of positive-control rescue, neutral wells zero | protection from apoptosis, % (no concentration beside the values) | hit rate 0.8% among 300,000 | AID 435005;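 active = all replicates at 75% or more, or half of them and the mean; inconclusive = half reach 75% but not the mean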;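 note: 0% = cytokine-treated negative control wells and 100% = positive control rescue; higher means more ATP so stronger rescue from cytokine killing; wells of about 40 µL received 100 nL stock; the first replicate is given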
# Vif TR-FRET: inhibitors of Vif binding to APOBEC3G peptide, primary screen, biochemical, TR-FRET, GST-Vif 1-94, biotin-A3G peptide, dose response retest (AID 1117319); hit rate 0.57% among 260,000; TR-FRET GST-Vif / biotin-A3G peptide binding; higher % means a stronger effect; test concentration not given here; strong numbers were not always called active; inhibition, %; hits with a dose series show IC50 in µM;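 active = above the screen mean plus three standard deviations and confirmed in dose response; inconclusive = results disagree or hit not tested in dose response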;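 note: Vif residues 1-94 fused to GST binding biotinylated APOBEC3G peptide 110-148; 0% = full assay without inhibitor and 100% = GST in place of GST-Vif; retest series ran down from 100 µM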
# Bfl-1 A1 inh: inhibitors of the anti-apoptotic protein A1, read as caspase activation | MEF A1-2A-BIM cells, Caspase-Glo 3/7 luminescence, 3 h; percent of clofoctol response, vehicle zero | caspase activation, % (concentration not given with the values) | hit rate 0.066% among 330,000 | AID 2462;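 active = over half of replicate activation scores above 10%, or exactly half above 10 with the replicate mean above 10; inconclusive = replicate mean below 10 yet half the replicates above 10; inactive = over half of replicates below 10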;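 note: wells of about 30 µL received 50 nL stock; many hits fall short of the cut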
# AF4-AF9 inh: MLL-AF4/AF9 protein interaction inhibition; P42568; AlphaScreen, biotin-AF4 peptide binding to FLAG-AF9; inhibition, % at 10 µM; hit rate 0.47% among 350,000; AID 651704;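 active = every replicate reaching a set inhibition limit, whatever the replicate mean, cut at about 25% in these data; inconclusive = mean inhibition reaches that limit but some replicates miss it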;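 note: 0% = plate neutral control median and 100% = total signal loss; the record names both 10 and 1 µM as test concentration; the first replicate is given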
# Target sequence (P42568 whole entry, looked up): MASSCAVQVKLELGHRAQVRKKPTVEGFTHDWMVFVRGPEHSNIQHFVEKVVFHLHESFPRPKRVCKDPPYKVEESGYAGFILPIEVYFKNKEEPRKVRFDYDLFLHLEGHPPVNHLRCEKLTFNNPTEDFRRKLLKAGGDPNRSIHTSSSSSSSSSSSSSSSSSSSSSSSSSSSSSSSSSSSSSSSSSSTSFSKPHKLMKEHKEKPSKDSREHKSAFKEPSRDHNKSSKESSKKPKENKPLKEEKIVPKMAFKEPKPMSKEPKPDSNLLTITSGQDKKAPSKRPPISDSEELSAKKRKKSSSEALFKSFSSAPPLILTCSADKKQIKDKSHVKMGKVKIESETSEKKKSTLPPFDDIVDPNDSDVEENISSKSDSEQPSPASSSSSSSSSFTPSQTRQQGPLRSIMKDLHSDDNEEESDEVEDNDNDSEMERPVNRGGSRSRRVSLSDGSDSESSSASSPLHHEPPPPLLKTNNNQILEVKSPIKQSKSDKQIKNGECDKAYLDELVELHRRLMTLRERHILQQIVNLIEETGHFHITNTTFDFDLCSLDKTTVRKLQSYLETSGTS
# Calb FLC: affects C. albicans growth with fluconazole; growth inhibition, % (no concentration beside the values); C. albicans CaCi-2 (fluconazole-resistant clinical isolate) + fluconazole, Alamar Blue growth, 48 h; hit rate 0.57% among 300,000;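 active = most replicates above 75%; inconclusive = exactly half above 75%; inactive = most below 75%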;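 note: all wells also contain fluconazole at 8 µg/ml as a sub-toxic cotreatment; 0% = median of DMSO wells and 100% = median of geldanamycin control wells; wells of about 8 µL received 7.5 nL stock; the first replicate is given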
# * hit, by the source's call; ? = inconclusive; . = not tested or not shown; & = joins results of further samples.
SMILES,LANA-H2B inh,T cruzi repl,RanGTP-Imp inh,Beta cell apopt,Vif TR-FRET,Bfl-1 A1 inh,AF4-AF9 inh,Calb FLC
COc1ccc(S(=O)(=O)N(C)c2ccc(C(=O)N3CCCCC3)cc2)cc1,-1.2,3,-2.9,8,0%,1.8,-0.8,-2
COC(=O)Cc1c(C)c2ccc(OCC(=O)N3CCC(C)CC3)c(C)c2oc1=O,2.9,25,.,-5,-3%,0.9,-0.8,.
COc1cc(CNCC(C)C)cc(Br)c1OCC(=O)Nc1ccccc1,-1.6,22,?,0,2%,-0.7,.,-28
CCn1c(C)nc2cc(C#N)ccc21,3.3,-17,2.0,2,-10%,0.2,0.3,-36
O=C(NCCc1ccc(Cl)cc1)C1CCN(C(=O)N2CCOc3ccccc32)CC1,-2.2,6,-0.1,6,.,-0.1,-9.8,5
O=C(CCn1cccc1)NC1CCCc2ccccc21 (stereo not drawn),-1.7,22,3.6,-4,0%,0.0,.,-1
CCOn1c(=O)c(=O)n(OC)c2ccccc21,-2.4,-7,?,-7,-9%,-0.7,-0.8,2
O=C(NCc1ccccc1Cl)C1CCN(C(=O)c2sccc2-n2cccc2)CC1,-0.7,15,-3.9,-5,-1%,0.3,-1.4,-2
Cc1ccc(S(=O)(=O)N2CCN(C(=O)CCn3cncn3)CC2)cc1C,-2.6,2,1.2,-4,.,1.0,0.0,-16
N#Cc1cc(C(=O)c2cc(Br)ccc2O)cn(C2CC2)c1=O,5.5,-3,4.6,1,1%,3.4,.,6
COc1ccc(S(=O)(=O)N(C)CC(=O)N2CCC(C(N)=O)CC2)cc1,3.3,6,3.5,0,-1%,0.1,-45,-3
CC1Cc2ccccc2C(=O)N1 (stereo not drawn),2.0,0,0.9,2,27%,0.3,.,-13
Cn1cccc1Cc1nnc(SCC(=O)Nc2cccc(F)c2)n1CCc1ccccc1,2.4,-7,?,-6,22%&0%,-0.2,13,4
Cc1ccc(Cn2c(=N)c(S(=O)(=O)c3ccc(Br)cc3)cc3c(=O)n4ccccc4nc32)cc1,-4.6,6,3.2,-6,-8%,0.5,.,.
CNC(=S)N1N=C(c2ccc(OC)cc2)CC1c1ccc(N(C)C)cc1 (stereo not drawn),5.9,17,0.3,7,-8%,-0.7,.,-12
CCOC(=O)c1c(C)n(C)c2ccc(OC(=O)c3ccoc3)cc12,-2.2,-12,2.2,-7,-3%,-1.4,.,1
CC(=O)Nc1nc(SCC(=O)NCc2ccc(F)cc2)[nH]c(=O)c1NC(=O)c1cccs1,0.1,-8,1.9,1,-2%,-0.5,-3.8,-18
O=C(O)Cc1csc(-c2cccc(F)c2)n1,2.6,-18,-9.7,-5,-7%,-0.5,-2.3,0
Cc1cnc(C(=O)Nc2cc(S(=O)(=O)N3CCOCC3)ccc2N2CCN(C)CC2)cn1,-3.7,27,-2.0,-8,.,0.4,2.3,-18
Cc1ccc(C(=O)N/N=C/c2ccc(-c3ccc(Br)cc3[N+](=O)[O-])o2)o1,6.6,37,4.8,-5,.,0.2,0.4,13
COc1ccccc1OCC(=O)OCn1c(SC)nnc(C)c1=O,3.9,-10,3.7,.,-9%,1.6,.,-3
CCCCn1c(=O)[nH]c(=O)c2c1nc(-c1ccc(OC(F)F)c(OC)c1)n2C,3.9,-2,-1.9,-1,.,0.1,-0.6,-4
CCOC(=O)N1CCN(S(=O)(=O)N2CCCC(C(=O)NCc3ccc(OC)cc3)C2)CC1 (stereo not drawn),-0.4,4,1.1,0,.,-0.7,0.3,-23
CNC(=S)N(Cc1ccc(Cl)cc1)Cc1cccs1,1.4,-7,-1.4,0,-5%,-0.4,-1.0,-42
COc1ccc(N2C(=O)C3CCCN3C2c2ccc(F)cc2)cc1Cl (stereo not drawn),-3.9,-5,3.2,6,?,0.9,.,-3
CCSc1nc2ccccc2n1C(=O)c1ccc(S(=O)(=O)N2CCCCC2)cc1,-13,-16,-2.2,-5,-4%,0.6,.,-10
O=C(COC(=O)C1CCCO1)Nc1nc(-c2ccc(F)cc2)cs1 (stereo not drawn),0.5,.,.,1,-6%,-3.9,-5.6,.
CCOC(=O)NC(=O)C(=CNc1ccccc1OC)C(=O)NC(=O)OCC,-3.0,-14,-1.0,-2,30%,0.1,-2.4,-11
Cc1ccccc1/C=N/n1c(COc2ccccc2)n[nH]c1=S,-2.0,2,-1.4,10,-7%,1.1,1.1,-7
COc1ccc(Cl)cc1C(=O)Nc1ccccc1N1CCN(C)CC1,1.5,22,1.9,-4,1%,-0.8,.,34
O=C(CNC(=O)c1ccccc1Cl)OCC(=O)N1CCc2ccccc21,-0.5,-13,-3.0,-3,6%,-4.7,2.5,-5
Cn1cnnc1SCC(=O)Nc1ccc2nc(SCc3ccccc3Cl)sc2c1,-2.9,18,2.9,1,8%,-1.2,.,-45
COc1ccc(NC(=O)CCSCCc2ccccn2)cc1OC,-0.7,-7,5.7,1,-7%,0.1,-2.8,-4
COc1ccc(NC(=O)C(Cc2ccccc2)n2cccc2)cc1OC (stereo not drawn),-3.7,2,-5.8,6,18%,0.7,1.1,2
CCOC(=O)C1CSC(CC(=O)Nc2ccc(Cl)cc2)C(=O)N1 (stereo not drawn),-3.5,-17,-4.1,-2,-1%,0.3,.,-5
Cc1ccc(S(=O)(=O)NCCCNC(=O)c2ccccc2)cc1,0.9,-8,-1.1,-10,3%,1.4,.,-7
COc1cc(C(N)=O)cc(Br)c1OC,-2.7,-17,4.3,-3,1%,-0.3,.,21
O=C(NCC1CCCO1)C(c1cccnc1)N(C(=O)Cc1cccs1)c1ccccc1 (stereo not drawn),4.1,17,-2.5,-3,29%,-2.1,1.0,1
Cc1ccc(C2C(C#N)=C(N)Oc3nc(-c4ccccc4)[nH]c32)o1 (stereo not drawn),-0.9,-2,0.3,-8,3%,0.4,.,14
O=C(CN(c1ccccn1)S(=O)(=O)c1ccc(F)cc1)Nc1ccccc1,-4.2,-7,3.0,-2,-2%,0.5,0.0,-13
CCN1C(=O)[C@H]2[C@@H](c3ccc(-c4cc(C(C)=O)cs4)cc3)N[C@@](Cc3ccccc3)(C(=O)OC)[C@H]2C1=O,2.8,.,.,-6,.,-0.1,1.3,.
COc1ccccc1NS(=O)(=O)c1ccc(C(=O)N2CC(C)OC(C)C2)cc1 (stereo not drawn),20*,.,.,-4,0%,-0.6,0.0,.
CCOC(=O)CC(NC(=O)c1cc2ccccc2oc1=O)c1cccc([N+](=O)[O-])c1 (stereo not drawn),.,16,1.3,-7,1%,1.2,-2.0,-15
O=C1Cc2ccccc2C(=O)N1CCc1ccccc1,-0.3,-21,-1.5,-1,8%,0.0,-4.2,-2
Cc1cccc(C)c1NC(=O)COC(=O)c1ccc2[nH]c3c(c2c1)CCCC3,2.6,14,7.6,5,.,-0.4,.,-9
COC(=O)c1ccc(NC(=O)c2cccc(N3C(=O)C4C5C=CC(C6CC56)C4C3=O)c2)cc1 (stereo not drawn),-7.2,-3,0.3,2,-29%,-1.1,0.9,9
COc1ccc(S(=O)(=O)/N=C2/NC(=O)/C(=C\c3cc(OC)c(OC)cc3[N+](=O)[O-])S2)cc1,-1.1,-3,2.9,-4,-1%,0.9,.,-9
O=C(Oc1ccc(Br)cc1C(=S)N1CCCC1)c1ccccc1F,0.0,5,2.3,-6,?,-0.2,.,14
CCc1cccc(NC(=O)CCCn2c(=O)[nH]c3ccsc3c2=O)c1,2.2,6,1.1,-1,.,-0.5,19,-6
CCOC(=O)N1CCN(C(=O)CS(=O)(=O)c2cn(Cc3ccccc3C)c3ccccc23)CC1,-0.6,18,-5.3,5,6%,0.7,.,-1

# Continued.
SMILES,LANA-H2B inh,T cruzi repl,RanGTP-Imp inh,Beta cell apopt,Vif TR-FRET,Bfl-1 A1 inh,AF4-AF9 inh,Calb FLC
O=C(O)CC(NNC(=O)c1ccccc1)C(=O)Nc1cccc([N+](=O)[O-])c1 (stereo not drawn),-2.9,4,2.0,-10,-2%,0.4,-2.5,?
O=C(O)c1ccccc1-c1nc2ccccc2n1-c1ccccc1,-9.7,-28,1.2,-5,0%,2.6,.,12
COc1ccc(S(=O)(=O)N2CCCOC2CNC(=O)C(=O)NCCCN2CCOCC2)cc1 (stereo not drawn),0.6,0,4.3,-5,.,0.2,-0.8,3
Cn1c(=O)c2c(nc(Br)n2C/C=N/NC(N)=S)n(C)c1=O,2.9,-34,-3.4,4,18%,0.3,0.3,-4
NC(=O)c1ccc(NC(=O)COC(=O)CNC(=O)c2sc3ccccc3c2Cl)cc1,-3.4,.,.,-6,-20%,0.7,-1.5,.
O=C(CNC(=O)Cc1ccccc1)NCC(=O)OCc1ccc(C(=O)c2ccccc2)cc1,0.4,-11,1.4,-4,-1%,-0.2,7.7,-29
Cc1ccc(S(=O)(=O)c2c(C)nn(C(C)(C)C)c2OC(=O)C(C)(C)C)cc1,-3.6,16,-1.1,-7,-1%,0.3,.,1
Cc1cc(C)nc(N2CCC(C(=O)NC3CCCc4ccccc43)CC2)n1 (stereo not drawn),12,-13,1.7,-1,-5%,0.4,.,-26
Cc1ccc(NC(=S)N2CCC(NC(=O)c3ccco3)CC2)cc1C,-0.9,-17,-0.2,-8,.,-0.6,-2.2,-5
COc1c(N2CCN(C(=S)Nc3ccc(F)cc3)C(C)C2)c(F)cc2c(=O)c(C(=O)O)cn(C3CC3)c12 (stereo not drawn),2.5,-11,-0.5,-3,0%,0.4,.,0
CC12CC3CC(C)(C1)CC(C(=O)Nc1nncs1)(C3)C2,-4.3,1,1.4,1,.,1.2,2.6,-9
CC(/C=N/NC(=O)c1nnn(-c2nonc2N)c1CN(C)C)=C\c1ccco1,-0.1,-1,-4.1,1,?,-0.6,-6.8,-3
Cc1ccc(CNC(=O)c2ccc(N3CCc4ccccc43)c([N+](=O)[O-])c2)cc1,0.2,21,-7.0,9,.,0.0,14,0
CCOC(=O)C(C)On1c(-c2ccc(Cl)cc2)nc2ccc([N+](=O)[O-])cc21 (stereo not drawn),-4.6,15,4.6,23,10%,-0.7,.,-9
COc1cccc(OC)c1-c1nn2c(-c3ccccc3Cl)nnc2s1,0.9,20,1.5,.,-6%,0.3,.,11
CN(CC(=O)NC(=O)NCc1ccccc1)Cc1ccc(Cl)c(Cl)c1,-7.5,3,0.6,-8,0%,-0.9,.,1
O=C1OCC=C1NNC(=O)c1cccnc1,7.8,-8,0.0,-5,3%,0.1,-1.1,7
Cc1ccc(NC(=O)C2CCC(CNc3c(N4CCC(C)CC4)c(=O)c3=O)CC2)cc1F (stereo not drawn),-8.3,16,-2.3,3,3%,-0.8,0.5,-10
CCc1nc(SCC(=O)c2ccccc2)c2c(=O)n(C)c(=O)n(C)c2n1,-0.4,23,-4.5,11,-12%,-0.9,-6.9,21
CC1(C)SC(=S)N(/N=C/c2ccccc2O)C1N(O)C(=O)Nc1ccccc1 (stereo not drawn),1.8,-6,?,5,-5%,-0.8,3.8,10
CCOC(=O)Cc1nnc(NC(=O)CC)s1,2.7,-4,-0.4,0,19%,0.3,.,-3
CCCn1cc(SCC(=O)Nc2nnc(C)s2)c2ccccc21,-1.8,-5,1.8,-5,9%,0.0,-9.9,-2
